# AID504770 – growth inhibitors of E. coli YBA685 in a screen for V. cholerae RctB (chromosome II replication) inhibitors. E. coli YBA685 rctB-dependent plasmid, OD600 growth, 3 h; stronger effect = lower value. z-score (no concentration beside the values). hit rate 0.27% among 130,000;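 active = z-score under -2 on both plates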;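 also: wells of about 30 µL received 100 nL stock; score is relative to mean and SD of the test wells; the first replicate is given; strong numbers were not always called active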
# CapD inh – blocks the Bacillus anthracis CapD enzyme; AID 492967; purified CapD enzyme, fluorescence intensity read-out; stronger effect = lower value; some hits fall short of the stated cut; hit rate 0.23% among 140,000; z-score (concentration not given with the values);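 active = z-score under -4 in either of two replicates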;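 also: stock transfer was 100 nL into about 40 µL; score is relative to mean and spread of the plate; one replicate is shown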
# Numbers without * were called inactive; / = not tested or not shown; & = joins results of further samples. Only part of the results is shown; the hit share may differ from the screen's.
CN(CCCC(=O)O)c1nc(-c2ccc(F)cc2)cs1
  AID504770: -0.9	CapD inh: 0.375
CCCCC1C2=C(CCCC2=O)OC2=C1C(=O)CCC2
  AID504770: 0.1	CapD inh: 0.835
Cc1cc(CNC(=O)c2cc(F)cc3c2OCOC3)no1
  AID504770: 0.65	CapD inh: 0.89
CCOC(=O)c1cnc(-c2cccs2)nc1Nc1ccc(Cl)cc1
  AID504770: 0.2	CapD inh: 9.76
COC(=O)c1ccc(C)c(NS(=O)(=O)c2ccc3c(c2)c(=O)sn3C)c1
  AID504770: 0	CapD inh: 0.005
CCCCCc1ccc(/C=N/NC(=O)COc2ccc(Cl)cc2C)cc1
  AID504770: /	CapD inh: -0.35
Cc1nc2ccc(NC(=O)C3CCCCC3)cc2c(=O)n1Cc1ccccc1
  AID504770: -0.05	CapD inh: /
O=[N+]([O-])c1ccc(Oc2c(Cl)cccc2Cl)c(Cl)c1
  AID504770: /	CapD inh: 0.125
CC/C(=N\NC(=O)c1ccc(N)cc1)c1ccc(Cl)cc1
  AID504770: -0.5	CapD inh: /
COc1cc(C(=O)N2c3ccccc3NC3=C(C(=O)CC(C)(C)C3)C2c2ccc(N(C)C)cc2)cc(OC)c1OC (centres undefined)
  AID504770: /	CapD inh: -0.18

OCc1cncn1Cc1ccccc1
  AID504770: -0.6	CapD inh: -1.29
Cc1cc2occ(CC(=O)OCc3cc(=O)n4c(n3)sc3ccccc34)c2cc1C
  AID504770: 0.1	CapD inh: /
O=S(=O)(NC1c2ccccc2Oc2ccccc21)c1cccs1
  AID504770: 1.25	CapD inh: /
O=C(/C=C/c1ccccc1)OCc1cncs1
  AID504770: 0.35	CapD inh: 0.02
Cc1ccc(NS(C)(=O)=O)cc1N=Cc1cc(Cl)cc(Cl)c1O
  AID504770: /	CapD inh: -1.04
O=C(/C=C/c1ccco1)N(Cc1ccccc1)c1ccccc1
  AID504770: -1.1	CapD inh: /
Cc1nc2nc(CNC(=O)OC(C)(C)C)nn2c(C)c1CCC(=O)Nc1ccc(F)cc1
  AID504770: -0.35	CapD inh: -0.67
O=C1OCCC1Sc1nc2sc3c(c2c(=O)[nH]1)CCC3 (centres undefined)
  AID504770: -0.5	CapD inh: -0.42
COc1ccc(S(=O)(=O)n2ccc(C)n2)cc1C
  AID504770: 2.3	CapD inh: 0.25
C=CC[n+]1cccnc1N
  AID504770: 0.75	CapD inh: -0.695

C#CCN1CCCC2(CCOC(C)(CC)C2)C1 (centres undefined)
  AID504770: 0.7	CapD inh: 0.36
O=C(CN1CCN(c2ccc(S(=O)(=O)N3CCCC3)cn2)CC1)Nc1ccc(Cl)c(C(F)(F)F)c1
  AID504770: -0.55	CapD inh: /
COc1ccc(-c2noc(N3CCCC(C(=O)Nc4cccnc4)C3)n2)cc1 (centres undefined)
  AID504770: -0.05	CapD inh: 0.08
N#CC(C#N)=Cc1cccc(OC(F)F)c1
  AID504770: -0.55	CapD inh: /
Cc1csc(=O)n1CCN(C)CC(=O)Nc1ccc(Cl)c(C(F)(F)F)c1
  AID504770: 0.85	CapD inh: /
CCOc1ccc(NC(=O)CN(C)c2ccc(S(=O)(=O)N3CCN(C)CC3)cn2)cc1OCC
  AID504770: 1.05	CapD inh: /
CCOC(=O)C1CCN(c2ncnc3c2cnn3-c2ccccc2)CC1
  AID504770: -0.45	CapD inh: -0.785
COC(=O)c1cc2c(cc1NC(=O)CSCCc1ccccn1)OCO2
  AID504770: -0.15	CapD inh: /
O=C(CSc1nnc2sc3ccccc3n12)NC1CCCC1
  AID504770: -0.9	CapD inh: /
CCC1CCCCN1C(=O)CSc1ncccc1C(=O)Oc1ccccc1Cl (centres undefined)
  AID504770: 0.85	CapD inh: 0.58

COc1ccccc1C1CC(c2ccc(Cl)cc2)=NN1S(=O)(=O)c1ccccc1 (centres undefined)
  AID504770: /	CapD inh: -0.19
FC(F)(F)c1cccc(NN=C2C3CC4CC(C3)CC2C4)n1
  AID504770: 2.1	CapD inh: -0.19
O=C(Nc1cc(C(F)(F)F)ccc1N1CCCCC1)c1cc[n+]([O-])cc1
  AID504770: -0.2	CapD inh: -0.18
C=CCN(C(=O)CSc1nc2[nH]ncc2c(=O)n1-c1ccc(Cl)cc1)c1ccccc1
  AID504770: /	CapD inh: -0.815
COC1CCCCC1NS(=O)(=O)c1ccc(Cl)cc1 (centres undefined)
  AID504770: -0.5	CapD inh: -0.735
COc1ccc(C(C)(O)C(CN2CCOCC2)c2ccccc2)cc1 (centres undefined)
  AID504770: -0.2	CapD inh: -0.67
COc1ccccc1CNC(=O)c1cc2sc(Cl)cc2n1C
  AID504770: -0.15	CapD inh: -0.36
C1CN(C(N2CCOCC2)N2CCOCC2)CCO1
  AID504770: -0.35	CapD inh: /
Cc1cc(Sc2c([N+](=O)[O-])cc(C(F)(F)F)cc2[N+](=O)[O-])c(Cl)cc1Cl
  AID504770: /	CapD inh: 0.14
Cc1ccc2nc(/N=C/c3ccc(Cl)cc3Cl)sc2c1
  AID504770: -0.5	CapD inh: 0.37

# Whole records from above. Values in the order: AID504770, CapD inh
# Listed for FC(F)(F)c1cccc(NN=C2C3CC4CC(C3)CC2C4)n1 → 2.1, -0.19
# Listed for Cc1ccc2nc(/N=C/c3ccc(Cl)cc3Cl)sc2c1 → -0.5, 0.37
# Listed for COc1ccccc1CNC(=O)c1cc2sc(Cl)cc2n1C → -0.15, -0.36
# Listed for COC1CCCCC1NS(=O)(=O)c1ccc(Cl)cc1 (centres undefined) → -0.5, -0.735
# Listed for COc1ccc(C(C)(O)C(CN2CCOCC2)c2ccccc2)cc1 (centres undefined) → -0.2, -0.67

# Following part
COc1cscc1C(=O)NC1(O)C(=O)c2ccccc2C1=O
  AID504770: -0.5	CapD inh: -0.7
O=C(Cc1nc2ccccc2[nH]1)NCc1ccco1
  AID504770: -0.9	CapD inh: -0.445
O=C(CCCn1ncn2c(cc3occc32)c1=O)N1CCc2ccccc2C1
  AID504770: -0.3	CapD inh: -0.105
COc1ccc(-n2ncc3c(Nc4ccc(Cl)c(Cl)c4)ncnc32)cc1
  AID504770: /	CapD inh: 2.27
COCc1nc(OC)c2c(C)c(C(=O)O)sc2n1
  AID504770: -0.7	CapD inh: /
O=C(CN1CCCc2ccccc21)N1CCCC1c1ccc2c(c1)OCCCO2 (centres undefined)
  AID504770: 0.5	CapD inh: /
CC(C)(C)OC(=O)N1CCN(c2ccc(NC(=O)c3cc4ccccc4oc3=O)cc2)CC1
  AID504770: 0.15	CapD inh: /
Cc1cccn2c(=O)cc(CN3CCCC3c3ccc4c(c3)OCCO4)nc12 (centres undefined)
  AID504770: 0.05	CapD inh: /
CC(C)n1cnc2cc(NC(=O)c3ccco3)ccc21
  AID504770: -0.5	CapD inh: /
CCOC(=O)c1cc(-c2ccc(S(=O)(=O)NCCN3CCC(C)CC3)s2)on1
  AID504770: 0	CapD inh: -0.065

Clc1ccc(CSc2nnc(/C=C/c3ccccc3)o2)cc1Cl
  AID504770: /	CapD inh: 0.955
COc1cc(C(=O)OCCCn2c(=O)c3c(ncn3CCCN(C)C)n(C)c2=O)cc(OC)c1OC
  AID504770: 0.35	CapD inh: -0.205
N#CC1(C#N)[C@H](c2cccnc2)[C@@H](C(=O)c2ccccc2)N2c3ccc(Cl)cc3C=C[C@@H]21
  AID504770: /	CapD inh: 0.045
CC(=O)Nc1cccc(C(=O)N2CCN(Cc3ccc4c(c3)OCO4)CC2)c1
  AID504770: 1.8	CapD inh: /
COc1ccc(C(=O)Nc2ccccc2C(=O)NCc2ccco2)cc1
  AID504770: -0.85	CapD inh: /
Cc1ccc(S(=O)(=O)N(C)C2CCN(Cc3cc4c(cc3Cl)OCO4)C2)cc1Cl (centres undefined)
  AID504770: /	CapD inh: 0.865
COC(=O)c1cc(S(=O)(=O)NCc2csc(-c3cccs3)n2)oc1C
  AID504770: 0.1	CapD inh: 45.8
CC(=O)OCc1ccc(COC(C)=O)c(OC(C)=O)c1OC(C)=O
  AID504770: -0.05	CapD inh: 0.52
Cc1nnc(SCc2ccccc2)nc1/C=C/NOCc1ccc(Cl)cc1
  AID504770: /	CapD inh: 0.36
O=S(=O)(NC1CCCCC1)c1cc(Cl)ccc1Cl
  AID504770: -0.75	CapD inh: /

CCC1(C)OC(=O)N2CCc3cc(OC)c(OC)cc3C21C (centres undefined)
  AID504770: 0.75	CapD inh: 0.555
CCOC(=O)c1cccnc1SCC(=O)O
  AID504770: -0.75	CapD inh: -0.495
COc1ccc(OC)c(NC(=O)c2c(C(F)(F)F)nn(C)c2Cl)c1
  AID504770: /	CapD inh: -0.115
Cc1ccccc1Cn1cc(NC(=O)c2cc(C3CC3)on2)cn1
  AID504770: -0.1	CapD inh: -0.34
Cc1noc2[nH]c(=O)cc(C(F)(F)F)c12
  AID504770: -0.5	CapD inh: 83.5
Cc1noc(C)c1CSc1nc(-c2ccccc2)cs1
  AID504770: -0.3	CapD inh: /
CC1CN=C(NCCc2ccccc2)S1 (centres undefined)
  AID504770: 0.7	CapD inh: 0.265
Cc1cc(C)nc(NS(=O)(=O)c2ccc(NC(=O)c3cc([N+](=O)[O-])cc([N+](=O)[O-])c3)cc2)n1
  AID504770: /	CapD inh: 0.08
O=C(N/N=C/c1ccccc1O)C1SCCCS1
  AID504770: 0.1	CapD inh: /
CCCOC(=O)COc1ccc2c(=O)c(Oc3ccc(OC)cc3)c(C(F)(F)F)oc2c1
  AID504770: /	CapD inh: 0.955

Cc1ccc(C(=O)C2CCN(C(=O)Cc3ccccc3)CC2)cc1
  AID504770: 0.7	CapD inh: /
O=C(Cn1cc2c(n1)CCCCC2)N1CCCCC1
  AID504770: 0.1	CapD inh: -0.035
CC(NC(=O)c1ncn[nH]1)c1ccc(-c2ccccc2)cc1 (centres undefined)
  AID504770: -0.1	CapD inh: 0.61
O=C1CN(C(=O)CCC(=O)c2ccc(F)cc2)c2ccccc2N1
  AID504770: 0.3	CapD inh: 1.02
CC1CCc2c(sc(NC(=O)c3cccs3)c2C(=O)O)C1 (centres undefined)
  AID504770: 2.7	CapD inh: -0.28
Cc1nc(C2COc3ccccc3O2)ncc1S(=O)(=O)c1ccc(Cl)cc1 (centres undefined)
  AID504770: 0.45	CapD inh: -0.575
O=C1C2ON(c3ccccc3)C(c3ccccc3)C2C(=O)N1Cc1ccccc1 (centres undefined)
  AID504770: /	CapD inh: 0.715
O=C(c1cc2cc(Cl)cc(Cl)c2oc1=O)N1CCCCC1
  AID504770: -0.45	CapD inh: 0.41
COc1ccc(/C=N/NC(=O)Cc2csc(-c3ccccc3)n2)c(OC)c1C
  AID504770: /	CapD inh: -1.11
CC(=O)Nc1ccc(S(=O)(=O)NNC(=S)NCc2ccco2)cc1
  AID504770: -0.65	CapD inh: 0.05

# Of the compounds above, 2 contain a tert-butyl group:
Cc1nc2nc(CNC(=O)OC(C)(C)C)nn2c(C)c1CCC(=O)Nc1ccc(F)cc1
  AID504770: -0.35	CapD inh: -0.67
CC(C)(C)OC(=O)N1CCN(c2ccc(NC(=O)c3cc4ccccc4oc3=O)cc2)CC1
  AID504770: 0.15	CapD inh: /

# Continued.
O=C1/C(=C/c2ccc(-c3cc(Cl)ccc3Cl)o2)C=C(c2ccccc2)N1c1cccc(Br)c1
  AID504770: /	CapD inh: 2.08
CN1c2ccc(Cl)cc2C(=O)NC1c1ccc(C#N)cc1 (centres undefined)
  AID504770: -1.05	CapD inh: 18.8
CCn1c(O)c(C=NCCCCCc2nc(-c3ccc(C)cc3)no2)c(=O)n(CC)c1=S
  AID504770: 0.65	CapD inh: /
COc1ccc2c(=O)c(Oc3ccccc3)c(C)oc2c1OC
  AID504770: 0.2	CapD inh: -0.645
Clc1ccc(Nc2nnns2)cc1
  AID504770: -1.3	CapD inh: 0.015
COC(OC)c1ccc(C#N)c(SCc2ccc(Cl)cc2)n1
  AID504770: 0.8	CapD inh: 10.2
c1ccc(Cc2nn[nH]n2)cc1
  AID504770: -0.1	CapD inh: 0.87&0
C=CCN(CC=C)S(=O)(=O)c1ccc(NC(=O)C2CCCCC2C(=O)O)cc1 (centres undefined)
  AID504770: -0.8	CapD inh: -0.165
O=C(O)CNC(=O)C(c1ccccc1)c1ccccc1
  AID504770: 0.95	CapD inh: 0.01
Cc1c(C(=O)N2CCCCC2C)sc2ncnc(N3CCN(c4ccccn4)CC3)c12 (centres undefined)
  AID504770: /	CapD inh: -0.055

# Three entries from above, with tabs:
compound	AID504770	CapD inh
O=C(CCCn1ncn2c(cc3occc32)c1=O)N1CCc2ccccc2C1	-0.3	-0.105
Cc1cc2occ(CC(=O)OCc3cc(=O)n4c(n3)sc3ccccc34)c2cc1C	0.1	/
CC(=O)OCc1ccc(COC(C)=O)c(OC(C)=O)c1OC(C)=O	-0.05	0.52

# (more compounds)
COc1ccc(N2Cc3cccc(C(=O)NCCCN4CCN(c5cccc(Cl)c5)CC4)c3C2=O)cc1
  AID504770: 0.45	CapD inh: 0.27
O=C(O)c1cccc(OCCN2CCCC2=O)c1
  AID504770: -0.4	CapD inh: /
CC(Oc1ccc(Oc2ccccc2)cc1)C(=O)NC1CC1 (centres undefined)
  AID504770: -0.1	CapD inh: /
CCN(C(=O)Nc1cccc(Cl)c1)c1ccccc1
  AID504770: -0.3	CapD inh: 0.445
C=CCSC1=C(C#N)C(c2ccc(C)cc2)C(C(=O)OC)C(=O)N1 (centres undefined)
  AID504770: -1.1	CapD inh: -0.13
CN(C1CCCCC1)S(=O)(=O)c1ccccc1
  AID504770: 1.05	CapD inh: -1.33
CCN(CC)c1ccc(C2C(C#N)=C(N)N(c3cccc([N+](=O)[O-])c3)C3=C2C(=O)CCC3)cc1 (centres undefined)
  AID504770: /	CapD inh: -0.7
Cc1ccc(C(=O)N2N=C(c3ccc(F)cc3)CC2(O)C(F)(F)F)cc1 (centres undefined)
  AID504770: /	CapD inh: -0.345
CC(=O)Nc1cccc(OS(=O)(=O)c2ccc(-c3csnn3)s2)c1
  AID504770: /	CapD inh: 1.4
Cn1c(=NC(=O)c2ccc(S(C)(=O)=O)cc2)sc2ccccc21
  AID504770: -1.05	CapD inh: /
CCOC(=O)c1c(NC(=O)C(C)Sc2nnc(CNC(=O)c3cccc(OC)c3)n2C)sc2c1CCCCC2 (centres undefined)
  AID504770: /	CapD inh: -1.23

# Screening data from PubChem BioAssay.
